Screening data: PubChem BioAssay, Broad Institute
FGF22 binding = binders of recombinant human FGF22 by thermal shift. Q9HCT0. SYPRO orange fluorescence; percent of sucrose octasulfate shift, DMSO zero. calls only at 9.99 µM. hit rate 1.5% among 340,000;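 active = melting point raised past a set limit in the mean and every replicate; three in four hits are not shown here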
Target sequence (Q9HCT0 whole entry, looked up): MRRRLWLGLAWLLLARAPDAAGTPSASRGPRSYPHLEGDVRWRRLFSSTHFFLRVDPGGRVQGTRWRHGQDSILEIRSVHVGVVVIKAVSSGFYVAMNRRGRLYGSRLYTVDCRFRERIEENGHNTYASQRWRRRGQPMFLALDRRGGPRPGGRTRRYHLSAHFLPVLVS
MLL AF4-AF9 inh = MLL-AF4/AF9 protein interaction inhibition; P42568; AlphaScreen, biotin-AF4 peptide binding to FLAG-AF9; inhibition, % at 10 µM; hit rate 0.47% among 350,000; AID 651704;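 active = every replicate reaching a set inhibition limit, whatever the replicate mean, cut at about 25% in these data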;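 note: 0% = plate neutral control median and 100% = total signal loss; the record names both 10 and 1 µM as test concentration; the first replicate is given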
Target sequence (P42568 whole entry, looked up): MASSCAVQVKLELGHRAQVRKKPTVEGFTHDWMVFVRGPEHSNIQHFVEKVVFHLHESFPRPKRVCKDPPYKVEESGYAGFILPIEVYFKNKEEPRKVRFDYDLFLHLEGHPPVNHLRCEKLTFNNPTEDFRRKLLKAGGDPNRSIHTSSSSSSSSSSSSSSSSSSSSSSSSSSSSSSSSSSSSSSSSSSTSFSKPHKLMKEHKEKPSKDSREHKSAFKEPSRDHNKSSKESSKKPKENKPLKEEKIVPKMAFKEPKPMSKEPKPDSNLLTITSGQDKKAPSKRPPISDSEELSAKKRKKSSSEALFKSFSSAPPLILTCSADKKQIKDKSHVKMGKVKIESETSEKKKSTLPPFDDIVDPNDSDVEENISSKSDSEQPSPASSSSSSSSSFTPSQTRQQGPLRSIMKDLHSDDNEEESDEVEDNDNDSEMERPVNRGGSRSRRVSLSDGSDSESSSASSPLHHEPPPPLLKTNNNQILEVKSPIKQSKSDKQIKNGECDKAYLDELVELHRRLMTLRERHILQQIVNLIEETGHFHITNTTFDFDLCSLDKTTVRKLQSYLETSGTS
rRNA inh HTS = selective bacterial rRNA inhibition in E. coli; E. coli WT GFP vs humanized-ribosome RFP mutants, fluorescence, 24 h; hits give low values; DMSO median 0, no signal -100; GFP signal change (wild-type ribosome), % (test concentration not listed); hit rate 1.6% among 350,000; AID 720706;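 active = significant combined selectivity score with lowered wild-type GFP, culture density cut under 30%, mutant RFP and density less affected; inactive = any of these conditions unmet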; note: one replicate is shown; some compounds called inactive have numbers as strong as hits
rRNA inh HTS OD600 = recorded beside rRNA inh HTS, whose call it bears; OD600 change, %; measured here: OD600 growth;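 optical density of the mix in the first replicate; 0 = DMSO median and -100 = no signal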
rRNA inh HTS RFP = second read-out of rRNA inh HTS, no call of its own (marks repeat the call); RFP signal change, %; measured here: RFP humanized mutant strains;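 first replicate; 0 = DMSO median and -100 = no signal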
* = called active by the depositor. Some of the compounds tested. The share of hits here may be higher or lower than overall.

How did C[C@@H]1CN([C@@H](C)CO)C(=O)c2cccc(NS(C)(=O)=O)c2O[C@H]1CN(C)C do in these assays?
FGF22 binding: inactive; MLL AF4-AF9 inh: -3.0; rRNA inh HTS: 4; rRNA inh HTS OD600: 11; rRNA inh HTS RFP: -1.6

Results for C[C@H](CO)N1C[C@H](C)[C@H](CN(C)S(=O)(=O)c2ccc(Cl)cc2)Oc2ccc(NC(=O)Nc3ccccc3)cc2CC1=O ?
FGF22 binding: inactive; MLL AF4-AF9 inh: -1.0; rRNA inh HTS: -1; rRNA inh HTS OD600: -2; rRNA inh HTS RFP: 0.1

Results for O=C(C[C@H]1CC[C@@H]2[C@H](COC[C@@H](O)CN2C(=O)c2ccccc2F)O1)N1CCOCC1 ?
FGF22 binding: inactive; MLL AF4-AF9 inh: -2.4; rRNA inh HTS: 5; rRNA inh HTS OD600: 9; rRNA inh HTS RFP: -1.4

What do the screens show for `Cc1cc(C(=O)Nc2cccc3c2O[C@@H](CN(C)S(C)(=O)=O)[C@@H](C)CN([C@H](C)CO)C3=O)n(C)n1`?
FGF22 binding: inactive; MLL AF4-AF9 inh: -1.5; rRNA inh HTS: 0; rRNA inh HTS OD600: 0; rRNA inh HTS RFP: -0.5

What do the screens show for `Cc1cc(C)cc(NC(=O)C(c2ccccc2)N2CCN(CC(=O)N3CCCC3)CC2)c1` (stereo not given)?
FGF22 binding: inactive; MLL AF4-AF9 inh: 2.4; rRNA inh HTS: 16; rRNA inh HTS OD600: 2; rRNA inh HTS RFP: 0.2

Results for COc1ccc(S(=O)(=O)N(C)C[C@H]2Oc3ccc(NC(=O)C4CCCCC4)cc3CC(=O)N([C@H](C)CO)C[C@H]2C)cc1 ?
FGF22 binding: inactive; MLL AF4-AF9 inh: 0.5; rRNA inh HTS: -3; rRNA inh HTS OD600: -2; rRNA inh HTS RFP: -1.0

How did CC(=O)N[C@@H]1CC[C@H](CCNC(=O)C2CCC2)O[C@H]1CO do in these assays?
FGF22 binding: inactive; MLL AF4-AF9 inh: -4.1; rRNA inh HTS: 0; rRNA inh HTS OD600: -7; rRNA inh HTS RFP: 1.5

How did C[C@H](CO)N1C[C@H](C)[C@H](CN(C)C(=O)Nc2ccc(F)cc2)Oc2ccc(NC(=O)Nc3ccc(F)cc3)cc2CC1=O do in these assays?
FGF22 binding: inactive; MLL AF4-AF9 inh: -1.3; rRNA inh HTS: 1; rRNA inh HTS OD600: -8; rRNA inh HTS RFP: -1.1

Results for C[C@H](CO)N1C[C@H](C)[C@@H](CN(C)Cc2ccc(C(=O)O)cc2)Oc2ccc(NS(=O)(=O)c3ccc(F)cc3)cc2C1=O ?
FGF22 binding: inactive; MLL AF4-AF9 inh: -1.1; rRNA inh HTS: 3; rRNA inh HTS OD600: 13; rRNA inh HTS RFP: 0.7

What do the screens show for `CCC(=O)N(C)C[C@@H]1Oc2ncc(-c3ccccc3F)cc2C(=O)N([C@H](C)CO)C[C@@H]1C`?
FGF22 binding: inactive; MLL AF4-AF9 inh: -0.7; rRNA inh HTS: -1; rRNA inh HTS OD600: 0; rRNA inh HTS RFP: -4.6

How did Cc1ccc(S(=O)(=O)N[C@@H]2CC[C@H](CCNC(=O)C3CCCCC3)O[C@@H]2CO)cc1 do in these assays?
FGF22 binding: inactive; MLL AF4-AF9 inh: -1.0; rRNA inh HTS: -1; rRNA inh HTS OD600: -1; rRNA inh HTS RFP: 0.3

What do the screens show for `CC1(C(=O)Nc2ccccc2Cc2ccccc2)CCN1Cc1ccccc1Cl` (stereo not given)?
FGF22 binding: inactive; MLL AF4-AF9 inh: -0.6; rRNA inh HTS: 4; rRNA inh HTS OD600: 7; rRNA inh HTS RFP: -1.1

Results for C[C@@H]1CCCCO[C@@H](CN(C)C(=O)Nc2ccc(F)cc2)[C@@H](C)CN([C@@H](C)CO)C(=O)c2cc(NC(=O)Cc3ccccc3)ccc2O1 ?
FGF22 binding: inactive; MLL AF4-AF9 inh: -1.9; rRNA inh HTS: 3; rRNA inh HTS OD600: 13; rRNA inh HTS RFP: -0.1

What do the screens show for `C[C@@H]1CN([C@H](C)CO)S(=O)(=O)c2ccc(C3=CCCCC3)cc2O[C@H]1CN(C)C(=O)C1CCOCC1`?
FGF22 binding: inactive; MLL AF4-AF9 inh: -3.6; rRNA inh HTS: 3; rRNA inh HTS OD600: 2; rRNA inh HTS RFP: -0.3

How did C[C@@H]1CCCCO[C@H](CN(C)C(=O)NC2CCCCC2)[C@@H](C)CN([C@H](C)CO)C(=O)c2cc(NC(=O)Nc3ccccc3)ccc2O1 do in these assays?
FGF22 binding: inactive; MLL AF4-AF9 inh: -1.3; rRNA inh HTS: -3; rRNA inh HTS OD600: 0; rRNA inh HTS RFP: -5.5

Results for O=C(C[C@@H]1C=C[C@H](NC(=O)Nc2cccc(F)c2)[C@@H](CO)O1)NCC1CC1 ?
FGF22 binding: inactive; MLL AF4-AF9 inh: -1.1; rRNA inh HTS: 0; rRNA inh HTS OD600: 4; rRNA inh HTS RFP: 2.8

What do the screens show for `OCc1ccc(-c2cncc3nccn23)cc1`?
FGF22 binding: inactive; MLL AF4-AF9 inh: -1.0; rRNA inh HTS: -1; rRNA inh HTS OD600: 0; rRNA inh HTS RFP: 2.7

What do the screens show for `COc1ccc(NC(=O)Nc2ccc3c(c2)[C@@H]2C[C@H](CC(=O)N4CCCCC4)O[C@@H](CO)[C@@H]2O3)cc1`?
FGF22 binding: inactive; MLL AF4-AF9 inh: 3.5; rRNA inh HTS: -4; rRNA inh HTS OD600: -3; rRNA inh HTS RFP: -1.9

Results for COC(=O)c1ccccc1S(=O)(=O)NNC(=O)C1COc2ccccc2O1 (stereo not given) ?
FGF22 binding: inactive; MLL AF4-AF9 inh: -7.6; rRNA inh HTS: -2; rRNA inh HTS OD600: -9; rRNA inh HTS RFP: 0.7

What do the screens show for `C[C@H](CO)N1C[C@H](C)[C@@H](CN(C)Cc2ccc(Oc3ccccc3)cc2)Oc2ccc(NC(=O)C3CC3)cc2CC1=O`?
FGF22 binding: inactive; MLL AF4-AF9 inh: 13; rRNA inh HTS: -27; rRNA inh HTS OD600: -40; rRNA inh HTS RFP: 2.6

Results for CCOC(=O)c1nn(C)c(=S)n(C)c1=O ?
FGF22 binding: inactive; MLL AF4-AF9 inh: -0.1; rRNA inh HTS: 7; rRNA inh HTS OD600: 11; rRNA inh HTS RFP: -2.2

How did COc1ccc(NC(=O)N(C)C[C@H]2Oc3ccc(N(C)C)cc3CC(=O)N([C@H](C)CO)C[C@H]2C)cc1 do in these assays?
FGF22 binding: inactive; MLL AF4-AF9 inh: -0.5; rRNA inh HTS: 2; rRNA inh HTS OD600: -4; rRNA inh HTS RFP: -0.4

What do the screens show for `O=C(N[C@@H]1CC[C@@H](CCNS(=O)(=O)c2ccc(F)cc2)O[C@@H]1CO)c1cnccn1`?
FGF22 binding: inactive; MLL AF4-AF9 inh: -2.7; rRNA inh HTS: -1; rRNA inh HTS OD600: 4; rRNA inh HTS RFP: 1.5

How did C[C@H]1CN([C@@H](C)CO)C(=O)c2cc(-c3cccnc3)cnc2O[C@@H]1CN(C)C(=O)Cc1cccnc1 do in these assays?
FGF22 binding: inactive; MLL AF4-AF9 inh: 0.9; rRNA inh HTS: 12; rRNA inh HTS OD600: 14; rRNA inh HTS RFP: -1.4

Results for COC(=O)[C@H]1[C@H](CO)[C@H]2Cn3c(ccc(-c4ccccc4F)c3=O)[C@H]2N1Cc1ccccc1 ?
FGF22 binding: inactive; MLL AF4-AF9 inh: 0.3; rRNA inh HTS: -3; rRNA inh HTS OD600: -7; rRNA inh HTS RFP: 2.3

How did O=C(CN1CCOCC1)NCC[C@H]1CC[C@@H](NC(=O)c2ccccc2F)[C@@H](CO)O1 do in these assays?
FGF22 binding: inactive; MLL AF4-AF9 inh: -3.7; rRNA inh HTS: 3; rRNA inh HTS OD600: 3; rRNA inh HTS RFP: 0.0

How did C[C@@H]1CN([C@H](C)CO)C(=O)Cc2cc(N(C)C)ccc2O[C@@H]1CN(C)C(=O)Nc1ccc(F)cc1 do in these assays?
FGF22 binding: inactive; MLL AF4-AF9 inh: -2.1; rRNA inh HTS: 4; rRNA inh HTS OD600: 3; rRNA inh HTS RFP: -0.2

Results for CO[C@@H](CN(C)S(=O)(=O)c1ccc(F)cc1)[C@H](C)CN([C@H](C)CO)S(=O)(=O)c1cccc(Cl)c1 ?
FGF22 binding: inactive; MLL AF4-AF9 inh: -0.1; rRNA inh HTS: 1; rRNA inh HTS OD600: -30; rRNA inh HTS RFP: -4.5

Results for CCCn1c(/C=N/Nc2nc3ccccc3[nH]2)nc2ccccc21 ?
FGF22 binding: inactive; MLL AF4-AF9 inh: 14; rRNA inh HTS: -28; rRNA inh HTS OD600: -10; rRNA inh HTS RFP: -13

How did CC(=O)N(C)C[C@H]1Oc2cc(-c3ccncc3)ccc2S(=O)(=O)N([C@H](C)CO)C[C@@H]1C do in these assays?
FGF22 binding: inactive; MLL AF4-AF9 inh: -0.2; rRNA inh HTS: 8; rRNA inh HTS OD600: 11; rRNA inh HTS RFP: -0.3

What do the screens show for `O=S(=O)(c1ccccc1)N1CC[C@H]2[C@H](CO)Nc3ccc(Br)cc3[C@H]21`?
FGF22 binding: inactive; MLL AF4-AF9 inh: 3.6; rRNA inh HTS: -22; rRNA inh HTS OD600: -29; rRNA inh HTS RFP: -4.3

What do the screens show for `O=[N+]([O-])c1ccccc1S(=O)c1ccccc1[N+](=O)[O-]`?
FGF22 binding: inactive; MLL AF4-AF9 inh: -3.8; rRNA inh HTS: 7; rRNA inh HTS OD600: 21; rRNA inh HTS RFP: -1.3

Results for OC(c1ccc(Cl)cc1)c1ncc(-c2ccccc2F)[nH]1 (stereo not given) ?
FGF22 binding: inactive; MLL AF4-AF9 inh: 7.7; rRNA inh HTS: -11; rRNA inh HTS OD600: -16; rRNA inh HTS RFP: -4.3

How did Cc1noc(C)c1NC(=O)Nc1ccc2c(c1)C(=O)N([C@@H](C)CO)C[C@H](C)[C@H](CN(C)C(=O)C1CCCCC1)OCCCC[C@H](C)O2 do in these assays?
FGF22 binding: inactive; MLL AF4-AF9 inh: -0.3; rRNA inh HTS: 0; rRNA inh HTS OD600: 2; rRNA inh HTS RFP: 0.2

Results for O=C(C[C@@H]1C=C[C@@H](NC(=O)Nc2cccc(F)c2)[C@H](CO)O1)NCC1CCCCC1 ?
FGF22 binding: inactive; MLL AF4-AF9 inh: 1.8; rRNA inh HTS: 1; rRNA inh HTS OD600: 0; rRNA inh HTS RFP: 0.7

How did C[C@H]1CCCCO[C@@H](CN(C)C(=O)Nc2cccc3ccccc23)[C@@H](C)CN([C@@H](C)CO)C(=O)c2cc(NS(=O)(=O)c3ccc(Cl)cc3)ccc2O1 do in these assays?
FGF22 binding: inactive; MLL AF4-AF9 inh: -5.5; rRNA inh HTS: 1; rRNA inh HTS OD600: -2; rRNA inh HTS RFP: 4.2

What do the screens show for `CO[C@@H]1CN(C)C(=O)c2ccc(NS(=O)(=O)c3ccc(Cl)cc3)cc2OC[C@H](C)NC[C@@H]1C`?
FGF22 binding: inactive; MLL AF4-AF9 inh: -11; rRNA inh HTS: 1; rRNA inh HTS OD600: 1; rRNA inh HTS RFP: 0.1

Results for CCCC#Cc1cnc2c(c1)C(=O)N([C@H](C)CO)C[C@@H](C)[C@@H](CN(C)C(=O)c1ccccc1)O2 ?
FGF22 binding: inactive; MLL AF4-AF9 inh: -2.8; rRNA inh HTS: 5; rRNA inh HTS OD600: 12; rRNA inh HTS RFP: 0.0

How did CNC[C@H]1Oc2cc(-c3ccc(C(=O)N(C)C)cc3)ccc2S(=O)(=O)N([C@H](C)CO)C[C@@H]1C do in these assays?
FGF22 binding: inactive; MLL AF4-AF9 inh: 0.4; rRNA inh HTS: 5; rRNA inh HTS OD600: 16; rRNA inh HTS RFP: 0.9

Random excerpt: 4 entries already listed, in no set order.
Results for C[C@H](CO)N1C[C@H](C)[C@@H](CN(C)Cc2ccc(C(=O)O)cc2)Oc2ccc(NS(=O)(=O)c3ccc(F)cc3)cc2C1=O ?
FGF22 binding: inactive; MLL AF4-AF9 inh: -1.1; rRNA inh HTS: 3; rRNA inh HTS OD600: 13; rRNA inh HTS RFP: 0.7

What do the screens show for `Cc1cc(C)cc(NC(=O)C(c2ccccc2)N2CCN(CC(=O)N3CCCC3)CC2)c1` (stereo not given)?
FGF22 binding: inactive; MLL AF4-AF9 inh: 2.4; rRNA inh HTS: 16; rRNA inh HTS OD600: 2; rRNA inh HTS RFP: 0.2

How did O=C(CN1CCOCC1)NCC[C@H]1CC[C@@H](NC(=O)c2ccccc2F)[C@@H](CO)O1 do in these assays?
FGF22 binding: inactive; MLL AF4-AF9 inh: -3.7; rRNA inh HTS: 3; rRNA inh HTS OD600: 3; rRNA inh HTS RFP: 0.0

What do the screens show for `O=[N+]([O-])c1ccccc1S(=O)c1ccccc1[N+](=O)[O-]`?
FGF22 binding: inactive; MLL AF4-AF9 inh: -3.8; rRNA inh HTS: 7; rRNA inh HTS OD600: 21; rRNA inh HTS RFP: -1.3
